Ba CapD inh: blocks the Bacillus anthracis CapD enzyme | purified CapD enzyme, fluorescence intensity read-out; stronger effect = lower value; some hits fall short of the stated cut | z-score (test concentration not listed) | 140,000 compounds, 0.23% hits;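 active = z-score under -4 in either of two replicates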;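 note: stock transfer was 100 nL into about 40 µL; score is relative to mean and spread of the plate; one replicate is shown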
AID504770: growth inhibitors of E. coli YBA685 in a screen for V. cholerae RctB (chromosome II replication) inhibitors. E. coli YBA685 rctB-dependent plasmid, OD600 growth, 3 h; stronger effect = lower value. z-score (test concentration not listed). 130,000 compounds, 0.27% hits. AID 504770;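 active = z-score under -2 on both plates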;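 note: wells of about 30 µL received 100 nL stock; score is relative to mean and SD of the test wells; the first replicate is given; strong numbers were not always called active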
The depositor's hits bear a star; i = inactive; / = no result given. The list is partial (hit frequency here may not be typical).

SMILES	Ba CapD inh	AID504770
Cc1[nH]c2ccccc2c1C(O)c1ccccn1 (configuration not stated)	-0.23	0.9
O=C1c2ccccc2C(=O)c2c1ccc(C(=O)Nc1cccc(Br)c1)c2[N+](=O)[O-]	-0.5	/
CN(C(=O)CN1CCN(c2cccc(C(F)(F)F)c2)CC1)C1CCS(=O)(=O)C1 (configuration not stated)	/	1.3
Cc1cc(=O)oc2c(C(=O)c3ccccc3)c(OC(=O)C(C)C)ccc12	0.22	0.95
O=C(Sc1ncccc1C(F)(F)F)c1ccc(Cl)cc1	-2	0.45
COc1ccc(C2CC(c3ccc(Cl)cc3)=NN2C(=O)c2cccc([N+](=O)[O-])c2)cc1 (configuration not stated)	-0.31	/
O=c1nc(-c2ccccc2)c2cc(SC(F)F)ccc2[nH]1	0.93	0.05
COC(=O)c1ccc(NC(=O)CSC2=NCCS2)cc1	/	-0.75
O=C(c1cc2n(n1)C(C(F)(F)F)CC(c1ccc3c(c1)OCO3)N2)N1CCN(c2ccccc2)CC1 (configuration not stated)	0.045	/
COc1ccc(OC)c2[nH]c(=O)c(CCNC(C)=O)cc12	/	0.45
O=C(CSc1nc2cc(C(=O)NCc3ccco3)ccc2c(=O)n1Cc1ccco1)c1ccccc1	0.61	0.1
O=C(Cc1ccc(-n2c(=O)[nH]c3ccsc3c2=O)cc1)Nc1ccc(-c2ccccc2)cc1	46	0.2
NCc1noc(-c2ccccc2)n1	/	2.5
CC(c1ccccc1)N1CC(C(=O)O)CC1=O (configuration not stated)	/	-0.3
Cn1c(Cc2cccc3ccccc23)nnc1SCc1ccccc1C#N	0.17	-0.65
CC1CCCN(CCS(=O)(=O)c2ccccc2)C1 (configuration not stated)	0.46	-0.25
COCCNC(=O)Cn1cnc2onc(-c3ccc(F)cc3)c2c1=O	0.27	1.6
O=C(Nc1ccc(Cl)cc1C(=O)N1CCOCC1)c1ccco1	/	0.75
O=C(CSc1c[nH]c2ccccc12)NC1CCCCC1	-1.1	-0.4
Cc1ccc(S(=O)(=O)N2CCCC(C(=O)NCCc3ccccc3)C2)cc1 (configuration not stated)	0.82	-0.4
CC(=O)Nc1ccccc1/C=C/Br	-0.07	0.5
O=C(CN1C(=O)S/C(=C\c2ccc(-c3ccc(F)cc3F)o2)C1=O)N1CCOCC1	/	0.3
Cc1cc(C)c(C(=O)O)c(=S)[nH]1	/	-2.5*
COc1cc(C2C(C(=O)N3CCCCC3)=C(C)NC3=C2C(=O)CC(C)(C)C3)ccc1OCc1ccccc1 (configuration not stated)	18	/

3 structures from above, ordered by length of the SMILES, lowest first.
SMILES	Ba CapD inh	AID504770
CC(c1ccccc1)N1CC(C(=O)O)CC1=O (configuration not stated)	/	-0.3
COC(=O)c1ccc(NC(=O)CSC2=NCCS2)cc1	/	-0.75
COCCNC(=O)Cn1cnc2onc(-c3ccc(F)cc3)c2c1=O	0.27	1.6

Following part.
SMILES	Ba CapD inh	AID504770
CC(NC(=S)Nc1ccc2c(c1)OCO2)C1CCCO1 (configuration not stated)	-0.15	-0.95
COc1ccccc1C1CCN(S(=O)(=O)c2ccc(OC(F)(F)F)cc2)CC1	0.46	/
CCOC(=O)c1sc2nc3n(c(=O)c2c1C)CCC3	0.86	-0.5
CS(=O)(=O)c1ccc(-n2cc(-c3ccccc3NC(=O)c3c(F)cccc3F)cn2)cc1	-0.21	/
CCOC(=O)c1ccc2nc3c(nc2c1)C(=O)c1ccccc1C3=O	0.35	0.55
Cc1nc(N2CCN(c3ccccn3)CC2)c2c(C)c(C(=O)NCCN3CCOCC3)sc2n1	0.26	/
CN(C)/C=C/C(=S)c1cccs1	-1.7	-0.6
CC1CN(S(=O)(=O)c2ccc(C(=O)O)cc2)CC(C)O1 (configuration not stated)	-0.84	1.7
Cc1ccc(S(=O)(=O)n2c(C)cc(C(=O)O)c2C)cc1	1	-1.1
COc1ccc(C)cc1NC(=S)NC12CN3CN(CN(C3)C1)C2	0.085	0.3
Cc1oc2c(c1C(=O)NCCC(C)C)C(=O)c1ccccc1C2=O	-0.12	0.25
O=C(Sc1nc2ccccc2o1)N1c2ccccc2Sc2ccccc21	0.19	1

Structural class: the entries above containing a furan ring, fused or not.
SMILES	Ba CapD inh	AID504770
O=C(CSc1nc2cc(C(=O)NCc3ccco3)ccc2c(=O)n1Cc1ccco1)c1ccccc1	0.61	0.1
O=C(Nc1ccc(Cl)cc1C(=O)N1CCOCC1)c1ccco1	/	0.75
O=C(CN1C(=O)S/C(=C\c2ccc(-c3ccc(F)cc3F)o2)C1=O)N1CCOCC1	/	0.3
Cc1oc2c(c1C(=O)NCCC(C)C)C(=O)c1ccccc1C2=O	-0.12	0.25

Returning to the listing with the three entries that preceded the break.
SMILES	Ba CapD inh	AID504770
COc1ccc(C)cc1NC(=S)NC12CN3CN(CN(C3)C1)C2	0.085	0.3
Cc1oc2c(c1C(=O)NCCC(C)C)C(=O)c1ccccc1C2=O	-0.12	0.25
O=C(Sc1nc2ccccc2o1)N1c2ccccc2Sc2ccccc21	0.19	1
CCOC(=O)c1nc2sc3c(c2c(=O)[nH]1)CCCC3	48	/
O=C1Nc2ccccc2/C1=C/C(=O)c1ccco1	-2.5	-1.1
CSc1nnc(CNC(=O)c2ccccc2)n1-c1cccc(C)c1	/	-1.1
COc1cccc(C2C3=C(CC(C)(C)CC3=O)OC3=C2C(=O)CC(C)(C)C3)c1OC	0	0.1
Cc1c(Br)sc2sc(-c3nn(C)cc3Br)c(C)c12	0.23	-0.35
O=C(CSc1nc2ccccc2c(=O)n1NC(=O)CCc1c[nH]c2ccccc12)NCc1ccccc1	-0.32	/
C=CCc1cc(/C=C2\Sc3ccccc3C2=O)cc(OCC)c1O	-0.05	/
O=C(/C=C/c1cc(Cl)c2c(c1)OCO2)N(Cc1ccco1)Cc1cccs1	/	0.4
CCOc1ccc(-c2[nH]nc3c2C(c2ccccc2F)C(C#N)=C(N)O3)c(OCC)c1 (configuration not stated)	0.26	/
O=C(CC1Sc2ccccc2NC1=O)OCc1cc(=O)oc2cc(O)ccc12 (configuration not stated)	/	-0.65
CCOc1c(NC(=O)c2ccc(N)cc2)cc(NC(=O)c2ccc(N)cc2)cc1C(N)=O	16	-0.65
Cc1ccc(C)c(S(=O)(=O)N2CCN(CC(=O)Nc3ccc4[nH]c(=O)[nH]c4c3)CC2)c1	/	0.15
COc1ccc(Cl)cc1NC(=O)C1CC(=O)n2c(nc3ccccc32)N1 (configuration not stated)	/	-0.65
Fc1cccc(-c2[nH]ncc2-c2nnnn2-c2ccccc2)c1	0.17	-0.15
CCOC(=O)CN1C(=O)C2(C(C#N)=C(N)Oc3ccccc32)C2=C1CC(C)(C)CC2=O (configuration not stated)	/	-0.4
CC(=O)Oc1ccc(C(=O)Nc2ccc(S(=O)(=O)Nc3nc(C)cc(C)n3)cc2)cc1	-1	/
COC(=O)c1ccc(NS(=O)(=O)c2cc(C(=O)OC)n(C)c2)cc1	0.23	0.3
O=C(NCc1cccs1)c1cccc(OC(F)F)c1	/	-1.8
Cc1[nH]c(=O)[nH]c(=O)c1S(=O)(=O)N1CCC(C(=O)NCCN2CCN(c3ccccc3)CC2)CC1	0.23	-0.5
CCOC(=O)c1c(NC(=O)CSc2nnc(CNC(=O)c3ccc(OC)c(OC)c3)n2C)sc2c1CCCCC2	0.035	/
CCOC(=O)c1sc(N)c(C#N)c1COC(=O)[C@@H]1CCCN1C(=O)c1cccs1	/	-0.7
N#Cc1c(N2C(=O)CC(Sc3ncccc3C(=O)O)C2=O)sc2c1CCCC2 (configuration not stated)	-0.39	-0.75
CCOc1cc(C2Nc3ccc4ccccc4c3C3=C2C(=O)CCC3)ccc1O (configuration not stated)	49	/
CS(=O)(=O)c1ccc(/C=C/C(=O)Nc2cccc(C(F)(F)F)c2)cc1	-0.91	/
COc1ccc(CNC(=S)N(CC(N)=O)C(C)C)cc1	/	0.55
O=C(OCCS(=O)(=O)c1ccc(C(F)(F)F)cn1)c1ccc(C(F)(F)F)cc1	1	-1.1
C=CCN1C2=NC(=O)CN2c2ccccc21	-0.28	-0.2
COc1ccc(OC)c(S(=O)(=O)NC(=NCC(C)C)SC)c1	-0.055	/
Cc1cc(C(F)(F)F)nn1C(=O)c1cccnc1Cl	-0.97	2.6
O=C(c1ccccc1)N1CCN(c2ccccc2)CC1	0.61	0.5
CCOc1cc(C2C(C#N)=C(N)Oc3n[nH]c(-c4ccc5c(c4)OCO5)c32)ccc1O (configuration not stated)	0.095	/
CC(C)c1ccc2c(c1)CCC1C(C)(CNC(=O)/C=C/C(=O)O)CCCC21C (configuration not stated)	-0.54	-0.4
Nc1nc(CN2CCN(C(=O)c3ccco3)CC2)nc(N2CCCc3ccccc32)n1	0.23	1.6
Cc1ccc(S(=O)(=O)Nc2cccc(C(=O)NC(C)(C)CO)c2)cc1	-0.18	0.8
CC(C)(C)N=C(NS(=O)(=O)c1cccs1)c1ccccc1	-0.3	-0.25
CCOC(=O)N1CCN(C(=O)CSc2nc3c([nH]c4ccccc43)c(=O)n2-c2ccccc2)CC1	0.67	0.5
O=C(NCCc1ccncc1)c1cc(Br)ccc1O	16	-1.1
CN(C)CCN1CCc2ccccc21	0.28	-1.1
COc1ccc([C@@H]2[C@@H](C(=O)c3ccccc3)N3c4ccc5ccccc5c4C=C[C@@H]3C2(C#N)C#N)cc1OC	7.1	/
CC(C)(C)c1ccc(COC(=O)c2ccc[nH]c2=O)cc1	/	0
CC1(c2ccccc2)CNC(=O)C1 (configuration not stated)	0.24	-0.6
O=C(Nc1cccc(-c2nc3ccccc3o2)c1)c1ccccc1	/	0.2
CC(C)NC(=O)CCCn1sc2ccccc2c1=O	-0.095	-0.8
CS(=O)(=O)c1ccc(NC(=O)CN2CSCC2=O)cc1	/	-1
CCSc1sc(C(=O)OC)c2c1/C(=N/O)CC(C)(C)C2	-0.02	1.5
CCCCn1c(CNC(=O)c2cccc(OC)c2)nnc1SCC(=O)Nc1sc2c(c1C(=O)OCC)CCC2	-0.43	/
CCCc1c(C(=O)Nc2ccccc2N2CCCCC2)cnn1-c1ccccc1	-0.92	-0.5
O=C(N/N=C/c1cc(F)ccc1F)c1ccccc1CCc1ccccc1	0.2	/
COc1ccccc1N1CCN(C(=O)CCNS(=O)(=O)c2ccc3c(c2)CCC(=O)N3)CC1	0.28	-0.55
Cc1c(CCO)sc[n+]1CC(=O)OC12CC3CC(CC(C3)C1)C2	-0.36	-0.75
CCN1C(=O)CC(C(=O)Nc2ccc(OC)cc2)SC1=Nc1ccc2c(c1)OCO2 (configuration not stated)	-0.29	/
O=C(c1ccco1)N1CCN(CCN2CCOCC2)CC1	1.1	0.4
Cc1c(C(=O)NCc2ccco2)sc2ncnc(N3CCN(c4ccccc4F)CC3)c12	-0.005	/
COc1cccc2cc(C(=O)N3CCc4ccccc4C3)c(=O)oc12	0.04	/
COc1cc2c3cc1Oc1cc(ccc1O)CC1c4c(cc(OC)c(O)c4Oc4ccc(cc4)CC3N(C)CC2)CCN1C (configuration not stated)	-0.45	/
O=C(CCN1CCOCC1)c1ccc(Br)cc1	-0.4	-1.6
CS(=O)c1sc(Br)c2c1C(=O)CC(C)(C)C2 (configuration not stated)	-0.45	-0.15
CC(=O)Nc1ccc2nc(NC(=O)c3cc(Cl)ccc3Cl)sc2c1	i	-0.95
N#CC(C(=O)c1cc2ccccc2o1)c1nc2ccccc2s1 (configuration not stated)	/	0.7
c1cnc(SCCOc2ccc3c(c2)CCC3)nc1	0.42	0.3
(further entries)
SMILES	Ba CapD inh	AID504770
Clc1ccc(CN2CCN(Cc3ccc(Cl)cc3)C2/C=C/c2ccccc2)cc1	0	/
N#C/C(=C/Nc1ccc2c(c1)OCCO2)C(=O)NCc1ccco1	-0.72	0.85
COC(=O)c1ccc(CSc2nncc(=O)n2N)o1	/	-0.35
CCC(=O)Nc1cccc(-c2nnc3c4ccccc4c(C)nn23)c1	94	0.2
O=C(O)CCC(=O)Nc1cccc(Cl)c1Cl	-0.11	/
O=C(NCCc1ccccc1)c1cnc(N2CCCC2)nc1	3.2	0.4
Cc1nc(N2CCOCC2)c2c(C)c(C(=O)Nc3ccc(Br)cc3C)sc2n1	-0.11	/
O=S(=O)(Nc1ccc2oc3c(c2c1)CCCC3)c1ccc(Cl)cc1	-0.39	/
CCCCC1(CC(=O)Nc2ccc(CC)cc2)C(=O)N(c2ccccc2)N(c2ccccc2)C1=O	-0.31	/
Clc1nc(NCc2ccccc2)nc(NCc2ccccc2)n1	-0.26	/
COc1ccc(-n2ccnc2SCC(=O)NCc2ccccc2)cc1	-0.71	0.35
O=C1C=Cc2ccc3c4c(ccc1c24)C=CC3=O	/	-0.1
CCOc1ccccc1NC(=S)NNc1nc2ccccc2o1	/	0.1
CC1(C)CC(=O)c2cc3c(N)c(C(=O)Nc4ccc(Cl)cc4)sc3nc2C1	-0.12	/
CCOCCCN=C1NC(C)(C)CS1	/	-0.3
COC(=O)C1=NNC2C(=O)N(c3cc(C)cc(C)c3)C(=O)C12 (configuration not stated)	/	-1.7
Cc1noc(C)c1-c1nc(CSc2ccc(Cl)cc2)no1	-0.22	/
Cc1cc(Oc2ccccc2)nc(N)n1	/	-1.1
COc1ccc(C(=O)NCc2cc(OC)cc(OC)c2)cc1	-0.53	/
Cc1cccc(NC(=O)CSc2c3c(nc4ccccc24)CCCC3)n1	-0.29	-0.9
CN(C)/C=N/c1nnc(SCc2ccc(F)cc2)s1	-2	-0.8
Cn1c(-c2ccc3c(c2)OCO3)cnc1NCc1cc(Cl)ccc1O	/	-0.8
Cc1ccccc1NC(=O)COc1ccccc1C	-0.11	-0.15
CCOC(=O)c1cnc(-c2ccccc2)nc1Sc1ccc(C)cc1	0.55	/

A portion from further up, as a working copy:
SMILES	Ba CapD inh	AID504770
O=C(Sc1nc2ccccc2o1)N1c2ccccc2Sc2ccccc21	0.19	1
CCOC(=O)c1nc2sc3c(c2c(=O)[nH]1)CCCC3	48	/
O=C1Nc2ccccc2/C1=C/C(=O)c1ccco1	-2.5	-1.1

Bioassay records: PubChem, ICCB-Longwood Screening Facility, Harvard Medical School
